# KCNQ2 inh: KCNQ2 potassium channel inhibitors, primary screen, cell-based, CHO-K1, FluxOR thallium flux, B-score (AID 2156) | O88943 | 20 min; hits give low values; only compounds with negative scores are shown here; some inactives read as strong as hits | B-score at 10 µM | 310,000 tested, 1.1% active;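 active means fluorescence ratio B-score at most minus 3 library SDs, with starting brightness B-score within 2 library SDs, cut at about -5.5 in these data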
# Target sequence (O88943 whole entry, looked up): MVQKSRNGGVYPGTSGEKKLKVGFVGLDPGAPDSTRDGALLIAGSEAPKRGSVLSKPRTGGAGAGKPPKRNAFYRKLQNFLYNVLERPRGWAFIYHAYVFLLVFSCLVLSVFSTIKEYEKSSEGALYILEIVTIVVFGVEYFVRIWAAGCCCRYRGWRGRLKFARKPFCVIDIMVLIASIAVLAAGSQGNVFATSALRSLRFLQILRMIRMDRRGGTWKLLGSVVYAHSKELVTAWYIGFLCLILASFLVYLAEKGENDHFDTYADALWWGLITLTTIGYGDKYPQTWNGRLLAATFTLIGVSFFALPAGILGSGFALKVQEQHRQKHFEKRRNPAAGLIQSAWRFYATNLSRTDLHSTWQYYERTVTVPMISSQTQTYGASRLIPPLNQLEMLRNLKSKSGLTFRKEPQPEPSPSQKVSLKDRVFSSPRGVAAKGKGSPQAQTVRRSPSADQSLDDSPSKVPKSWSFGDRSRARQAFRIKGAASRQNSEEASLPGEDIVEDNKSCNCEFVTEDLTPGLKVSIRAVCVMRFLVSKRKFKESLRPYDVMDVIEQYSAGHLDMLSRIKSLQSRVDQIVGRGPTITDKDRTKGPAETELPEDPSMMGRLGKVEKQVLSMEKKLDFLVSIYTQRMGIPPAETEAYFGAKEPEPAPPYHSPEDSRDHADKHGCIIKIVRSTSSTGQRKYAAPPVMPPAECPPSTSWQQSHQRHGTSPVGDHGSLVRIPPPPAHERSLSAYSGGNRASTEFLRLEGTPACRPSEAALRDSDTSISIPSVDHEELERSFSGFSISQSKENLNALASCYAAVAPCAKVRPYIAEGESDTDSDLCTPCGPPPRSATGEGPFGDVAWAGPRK
# KCNQ2 inh baseline: also measured in KCNQ2 inh; calls as there; B-score; measured here: initial fluorescence intensity artifact check;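 brightness before thallium and not channel activity; 0 = typical well and far values either way flag optical interference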
# Starred values were filed as active, the others as inactive; i = inactive. Some of the compounds tested, so the mix of outcomes need not match the whole.
KCNQ2 inh | KCNQ2 inh baseline | Structure
i | 0.03 | Cc1c(C(=O)N2CCCC2)oc2c1-c1nn(CC(=O)NCCCN3CCCCC3)cc1CC2
i | -0.27 | Cc1cc(C)n(C(=O)CNc2cccc(Cl)c2C)n1
i | 0.42 | Cc1cc(C)c(S(=O)(=O)N2CCN(C(=O)CCn3nc(C)c(C)c3C)CC2)c(C)c1
i | 0.19 | COc1ccc(-c2nc(C#N)c(N3CCN(c4ccccc4)CC3)o2)cc1
i | 1.1 | NNC(=O)CCS(=O)(=O)c1ccc2ccccc2c1
i | 0.29 | Cc1nn(Cc2ccccc2)c2ncccc12
i | -0.09 | O=C(c1cc(-c2ccc(O)cc2)on1)N1CCN(c2ccccc2)CC1
i | 0.12 | COc1ccc(OC)c(/C=N/NC(=O)CCN2CCN(C(c3ccccc3)c3ccccc3)CC2)c1
i | -1.1 | COCCn1c(-c2ccccc2)nc2c(c(=O)c3ccccc3n2C)c1=O
i | 0.04 | Cc1cc(NC(=O)C2CC(=O)OC2c2ccccc2)no1 (configuration not stated)
i | 0.12 | COc1ccccc1NC(=O)Nc1nn(C)c2cccc(N(C)C)c12
i | -0.02 | N#Cc1c2c(c(NCc3cccnc3)n3c1nc1ccccc13)CCC2
i | -1.8 | Nc1nnc(CC(=O)N/N=C/c2ccccc2OCc2ccc(F)cc2)s1
i | 0.71 | Cc1ccc(OCC(=O)NC(=S)Nc2cccc(NC(=O)c3ccc(Cl)cc3Cl)c2)cc1
i | 0.84 | CCOc1cc(CNCc2ccncc2)cc(Br)c1OCc1ccccc1F
i | 0.96 | O=C(CSc1nnc2sc3ccccc3n12)N1CCN(c2ccccc2)CC1
i | 1.1 | COc1ccc2c(c1)C(c1ccccc1)=NNC(c1ccco1)=N2
i | 1.6 | CCOCCCNC(=O)C(c1ccccc1)N(Cc1cccs1)C(=O)CNC(=O)c1ccccc1 (configuration not stated)
-6.7* | 0.09* | CCN(CC)c1nc(C)c2c(c1C#N)CC(C)(C)OC2
i | -0.72 | Cc1ccc(S(=O)(=O)N2CCCCC2)cc1NC(=O)c1ccccn1
i | -0.96 | COc1ccc(NC(=O)CSc2nnc(Cc3cccs3)n2C)cc1
i | -0.1 | Cc1[nH]c2ccc(C(=O)NCCCN3CCN(C)CC3)cc2c1C
i | 0.79 | O=C(NC(Cc1c[nH]c2ccccc12)C(=O)O)c1cccs1 (configuration not stated)
i | 1.2 | COc1ccccc1OCc1ccc(C(=O)N/N=C/c2ccco2)cc1
i | -0.07 | O=C(Cc1ccccc1)Nc1ccc(C(=O)NCc2ccccc2)cc1
i | -0.13 | COc1ccc(CNC(=O)CCC2N=C3c4ccccc4N=C(SCC(=O)NCC4CCCO4)N3C2=O)cc1 (configuration not stated)
i | -0.58 | CC(=O)Nc1c(Nc2ccccc2)c2ccccc2oc1=O
i | 1.7 | CCN(CC)S(=O)(=O)c1ccc(Cl)c(NC(=O)COc2ccc(OC)cc2[N+](=O)[O-])c1
i | 0.25 | CCC1CCCCN1C(=S)Nc1ccc(C(C)=O)cc1 (configuration not stated)
i | -1.9 | CCc1ccc(C(=O)NCc2cnn(C)c2)s1
i | 1 | CN(C)c1ccc(/C=N/NC(=O)C(=O)/C=C2\NC3(CCCC3)Cc3ccccc32)cc1
i | -0.88 | Cc1ccc(OCCNC(=O)c2ccc(C)cc2)cc1
i | 2.7 | COc1ccc(C(=O)COC(=O)c2nn(C)c(=O)c3ccccc23)c(OC)c1
i | -1.5 | O=C(COc1ccccc1Cl)Nc1cccc(S(=O)(=O)NC2=NCCCCC2)c1
i | 1.9 | Cc1ccccc1N=CC1=C(O)c2ccccc2C1=O
i | 0.48 | O=C(NCc1ccc2c(c1)OCO2)c1cc(-c2ccccn2)nc2ccccc12
i | 1.5 | Cc1ccc(C(=O)Nc2ccc(S(=O)(=O)Nc3ncccn3)cc2)cc1[N+](=O)[O-]
-7.3* | 0.83* | COc1cccc(/C=N/NC(=O)c2c(-c3ccccc3)noc2C)c1OC
i | -0.28 | Clc1ccc(CN2CCCCCC2)cc1Cl
i | -0.59 | Cc1ccc(CC(=O)N2CCN(c3ccccc3F)CC2)cc1
i | -1.1 | COC(=O)C(Cc1ccccc1)NC(=O)CCc1c[nH]c2ccccc12 (configuration not stated)
i | -0.03 | Cn1cccc1Cc1nnc(SCC(=O)Nc2ccc(F)cc2F)n1-c1ccc(F)cc1
i | 1.3 | c1ccc(Nc2nc3ccccc3[nH]2)nc1
i | 2.7 | Cc1cc(=O)n2nc(N3CCCC(C(=O)Nc4ccc(C)c(C)c4)C3)sc2n1 (configuration not stated)
i | 2 | Cc1nn(S(=O)(=O)c2ccc(C(C)(C)C)cc2)c(C)c1S(=O)(=O)N1CCOCC1
i | -1.7 | CCc1ccc2nc(N(CCCN(C)C)C(=O)c3ccc4c(c3)OCCO4)sc2c1
i | -0.18 | O=C(NNc1ccc(O)cc1)c1ccc(Br)cc1
i | -0.13 | CCCCNC(=O)c1ccc(/C=C2\Oc3ccccc3N(C)C2=O)cc1
i | 0.54 | CC(OC(=O)CCCN=C1NS(=O)(=O)c2ccccc21)C(=O)c1ccccc1 (configuration not stated)
i | -2.1 | N/C(CC(=O)NCCOc1ccccc1)=N\O
i | -0.06 | COc1cccc(-c2cc(C(=O)NCc3ccc(Cl)cc3)no2)c1
i | 1.6 | CCOc1ccccc1C(=O)NC1CC2CCCC(C1)N2Cc1ccc(C)cc1 (configuration not stated)
i | -0.66 | O=C(Nc1nnc(-c2ccc(Cl)cc2)o1)Nc1ccccc1F
i | 0.73 | CN1C(=O)N(C)C2C1N(C)S(=O)(=O)N2C (configuration not stated)
i | 0.7 | CC(C)NC(=S)N=Nc1c(O)[nH]c2ccc(C(C)C)cc12
i | 0.38 | C/C(=N\OC(=O)NC(C)C)c1sc(-c2ccccc2)nc1C
i | 4 | COc1cccc(/C=N/NC(=S)NCCc2ccccc2)c1
i | 1 | O=C(CNC(=O)c1ccc(-c2ccccc2)cc1)Nc1ccc(S(=O)(=O)Nc2ncccn2)cc1
i | 0.05 | C/C(CC(=O)Nc1ccc(N(C)C)cc1)=N\NC(=O)c1ccccc1O
i | 0.23 | COc1ccc(CNC(=O)C(=O)NCC2OCCN2S(=O)(=O)c2ccc(OC)cc2)cc1 (configuration not stated)

# Going on with the list.
KCNQ2 inh | KCNQ2 inh baseline | Structure
i | 0.82 | S=C(Nc1ccc2nsnc2c1)NC1CCCCC1
i | 1.2 | CCOC(=O)C1(N(CC)CC)Sc2cc(C)ccc2NC1=O (configuration not stated)
i | -1.4 | CC1CCCN(C(=O)CCS(=O)(=O)c2cc3c(cc2Cl)NC(=O)CO3)C1 (configuration not stated)
i | 0.48 | CCN(CC)C(=O)c1[nH]cnc1C(=O)Nc1ccc(OC)cc1
i | 0.22 | COC(=O)C1CCN(c2c([N+](=O)[O-])cc(C(F)(F)F)cc2[N+](=O)[O-])CC1
i | 1.3 | COc1ccc(NS(=O)(=O)c2cc(NC(=O)c3cc(F)c(F)c(F)c3F)ccc2N2CCCC2)cc1
i | -0.64 | Cc1ccc(Nc2nc3ccccc3nc2-n2nc(C)cc2C)cc1
-5.9* | -0.43* | Cc1csc(-c2cnn(-c3ccccc3)c2NC(=O)c2ccc(C(F)(F)F)cc2)n1
i | 0.01 | CN(C(=O)CSC(=O)c1ccccc1)c1ccccc1
i | 2.8 | O=C(NCc1ccco1)c1cc(-c2ccccn2)nc2ccccc12
i | 0.86 | Nc1ccc(C(=O)N2N=C(c3ccccc3)CC2(O)C(F)(F)F)cc1 (configuration not stated)
i | 0.72 | CCOc1cc(/C=N/Nc2nc(N3CCCCC3)nc(N3CCCCC3)n2)ccc1OC(=O)c1ccco1
i | 1 | O=c1[nH]c(SCc2ccc(F)cc2Cl)nc2ccccc12
i | 0.73 | CC(Sc1nc2c(N)ncnc2n1CCOc1ccccc1)C(=O)O (configuration not stated)
i | 0.55 | Cc1ccc(NC(=O)CNS(=O)(=O)c2cccs2)cc1F

# Part of the list above in order of formula weight, smallest number first.
KCNQ2 inh | KCNQ2 inh baseline | Structure
i | -0.64 | Cc1ccc(Nc2nc3ccccc3nc2-n2nc(C)cc2C)cc1
i | 0.86 | Nc1ccc(C(=O)N2N=C(c3ccccc3)CC2(O)C(F)(F)F)cc1 (configuration not stated)
-5.9* | -0.43* | Cc1csc(-c2cnn(-c3ccccc3)c2NC(=O)c2ccc(C(F)(F)F)cc2)n1

# (further entries)
KCNQ2 inh | KCNQ2 inh baseline | Structure
i | 1.9 | C/C(=C\C(=O)c1ccc(Cl)cc1)Nc1ccc(N2CCOCC2)cc1
i | -0.63 | Cc1cccc(OCCN2CSC(=S)N(C)C2)c1
i | -1.8 | O=C(N/N=C/c1cccc(F)c1)c1ccc(Cl)cc1
i | -3.2 | CCOC(=O)Cn1c(=O)n(Cc2ccco2)c(=O)c2ccc(C(=O)NCCc3ccccc3)cc21
i | 0.27 | CC(=O)Nc1cccc(C(=O)/C=C/c2ccc(F)cc2)c1
i | 2 | COc1ncnc2c1oc1nc(CC(C)C)c3c(c12)CC(C)(C)OC3
i | 0.7 | COc1ccc([N+](=O)[O-])cc1NC(=S)Nc1ccccc1
i | 1.9 | CCOC(=O)C1=C(O)CSC1=Nc1ccc(Cl)cc1
i | -0.15 | COc1cccc(NC(=O)CN2C(=O)NC(C)(CCC(C)C)C2=O)c1 (configuration not stated)
i | 0.37 | O=C(CSc1nnc(CNC(=O)c2cccs2)o1)NCc1ccc(F)cc1
i | -1.6 | c1n[nH]c(SCCCCSc2ncn[nH]2)n1
i | 0.54 | O=c1cc(-c2ccc3c(c2)OCCO3)oc2ccc(Cl)cc12
i | -1.5 | CCOC(=O)C1CCN(C(=O)COC(=O)C2CCN(S(=O)(=O)c3ccc(C)c(C)c3)CC2)CC1
i | -2.3 | CCN1CCN(c2nnc(-c3ccc(F)cc3)c3ccccc23)CC1
i | -0.41 | O=C(Oc1c(Cl)cc(Cl)c2cccnc12)N1CCCCC1
i | 0.79 | COc1cc(/C=C(\C#N)C(N)=O)ccc1OS(=O)(=O)c1ccc(C)cc1
i | 0.33 | CCN1CCN(CCC(=O)Nc2ccc3c(c2)OCO3)CC1
i | 0.54 | Cc1ccccc1C1CC(c2ccc(F)cc2)Nc2nc(N)nn21 (configuration not stated)
i | 0.44 | CCCc1cc(=O)oc2cc(OCC(=O)NCCc3c[nH]c4ccccc34)ccc12
i | 0.72 | Cc1cccc(C(OC(=O)c2ccco2)C(=O)NCc2ccccc2)n1 (configuration not stated)
i | -0.07 | CCN(CC(=O)NCc1cccs1)C(=O)c1ccccc1Cl
i | 0.65 | COc1ccccc1CN1CC(C(=O)NC2CCOCC2)CCC1=O (configuration not stated)
i | 2.4 | COc1cccc(C(=O)NCCS(=O)(=O)NCc2ccco2)c1
i | -0.79 | CC1Oc2ccccc2C=C1/C=N/NC(=O)c1ccccc1 (configuration not stated)
i | 1.7 | O=C(COC(=O)C1CCC(=O)N1)Nc1ccc(Cl)cc1Cl (configuration not stated)
i | 0.63 | Cc1ccc(NC(=O)c2ccccn2)c(Br)c1
i | 1.6 | CCOc1ccccc1C1CC(c2ccc(Br)cc2)Nc2nc(N)nn21 (configuration not stated)
i | -0.59 | CCn1c(Cc2cccs2)nnc1SCC(=O)NC1CC1
i | -0.66 | Cc1ccc(OC(=O)N2CCOCC2)cc1
i | -3.8 | Cc1ccc(-c2cc(C(=O)N(C)Cc3cnn(C)c3C)c3cc(Br)ccc3n2)cc1
i | 1.4 | COC(=O)c1cc(-c2ccc(OC)c(OC)c2)c2c(=O)[nH]c(=O)n(C)c2n1
i | 1.4 | CCOC(=O)CSc1nc2cc(C(=O)N3CCCC3)ccc2c(=O)n1Cc1ccccc1
i | 2.7 | CC(=O)Nc1ccc(/C=N/OCC(=O)Nc2ccc(C)cc2)cc1
i | -1 | Cc1ccccc1C(=O)Oc1ccc(Sc2ccc(O)cc2)cc1
i | -1.4 | Cc1cc(O)c(C2(O)C(=O)Nc3cc(Br)ccc32)cc1C (configuration not stated)
i | 0.12 | Cc1ccc(NC(=O)NCCCN2CCCC2=O)cc1C
i | -0.46 | COc1cccc(NC(=O)CNC(=O)Cn2cnc3sc4c(c3c2=O)CCCC4)c1
i | -0.13 | Cc1ccccc1N/N=C/c1ccc(C#N)cc1
i | 0.28 | COc1ccc(/C=N/NC(=O)c2cccc(NC(C)=O)c2)c(OC)c1
i | 1.6 | Cc1cc(C(=O)CSc2nc3ccc(Cl)cc3[nH]2)c(C)n1Cc1ccco1
i | -0.02 | CCOC(=O)CN(C(=O)CNC(=O)c1ccco1)C(C(=O)NC1CCCC1)c1ccccc1OCC (configuration not stated)
i | 0.88 | COc1ccc(OC)c(C2=NOC(C(=O)NCc3cccnc3)C2)c1 (configuration not stated)
i | 0.34 | COc1ccc(C(C)=O)cc1CSc1nc2ccccc2c(=O)n1-c1ccccc1C
i | -0.2 | CCOC(=O)c1cnc(-n2nc(C)cc2C)nc1Oc1ccc(C#N)cc1
i | -1.3 | COc1ccccc1/C=C/C(=O)NCCC1=CCCCC1

# In the list so far, 3 contain a CF3 group.
KCNQ2 inh | KCNQ2 inh baseline | Structure
i | 0.22 | COC(=O)C1CCN(c2c([N+](=O)[O-])cc(C(F)(F)F)cc2[N+](=O)[O-])CC1
-5.9* | -0.43* | Cc1csc(-c2cnn(-c3ccccc3)c2NC(=O)c2ccc(C(F)(F)F)cc2)n1
i | 0.86 | Nc1ccc(C(=O)N2N=C(c3ccccc3)CC2(O)C(F)(F)F)cc1 (configuration not stated)

# Next entries follow:
KCNQ2 inh | KCNQ2 inh baseline | Structure
i | -1.1 | O=C(Nc1ccc2c(c1)CCC2)c1ccccc1Br
i | -0.48 | CCOC(=O)N1CCC(n2c(SCC(=O)Nc3nccs3)nc3ccsc3c2=O)CC1
i | -1.9 | O=C(NCc1ccc(F)cc1)C1CCN(S(=O)(=O)N2CCCCC2)CC1
i | -0.08 | CCC1CCCCN1Cc1nc(Cc2ccccc2Cl)no1 (configuration not stated)
i | -0.06 | CN(C)CCN1C(=O)NC(C)(c2ccc([N+](=O)[O-])cc2)C1=O (configuration not stated)

# Quoted at random: two entries already listed.
KCNQ2 inh | KCNQ2 inh baseline | Structure
i | -1.1 | O=C(Nc1ccc2c(c1)CCC2)c1ccccc1Br
i | -0.06 | CN(C)CCN1C(=O)NC(C)(c2ccc([N+](=O)[O-])cc2)C1=O (configuration not stated)

# Bioassay records from PubChem BioAssay.
